Screens from PubChem BioAssay.
D2 ag = Beta-Arrestin HTS for Positive Allosteric Modulators of the Human D2 Dopamine Receptor: Agonists. activation, % (test concentration not listed). DiscoveRx PathHunter D2 beta-arrestin, luminescence, 90 min; 100% = 57 uM dopamine signal. actives 0.084% (n = 360,000). AID 624465, 2012. D(2) dopamine receptor (Homo sapiens), P14416; in the data active = activation above about 40%; inconclusive = about 15% to 40%; inactive = below about 15%; further: compound concentration not given in the record; the text of the record calls up to 30% inactive
Target sequence (P14416 whole entry, looked up): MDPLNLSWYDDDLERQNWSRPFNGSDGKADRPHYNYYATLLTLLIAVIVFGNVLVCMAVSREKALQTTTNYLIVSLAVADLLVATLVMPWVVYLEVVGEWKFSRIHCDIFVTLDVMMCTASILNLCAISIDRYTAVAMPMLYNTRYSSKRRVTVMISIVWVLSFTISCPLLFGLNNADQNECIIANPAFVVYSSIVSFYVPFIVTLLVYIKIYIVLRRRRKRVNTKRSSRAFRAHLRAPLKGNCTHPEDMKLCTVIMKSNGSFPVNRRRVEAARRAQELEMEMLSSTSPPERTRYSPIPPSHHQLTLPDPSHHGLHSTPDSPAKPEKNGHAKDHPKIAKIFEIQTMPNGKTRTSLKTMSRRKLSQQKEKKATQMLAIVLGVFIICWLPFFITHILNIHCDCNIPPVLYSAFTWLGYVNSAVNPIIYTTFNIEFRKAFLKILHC
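DiscoveRx PathHunter D2 beta-arrestin cells (2,100/well) attached overnight, then compound-stimulated 90 min at 37 C in HBSS/10 mM HEPES/0.1% Tween-20 buffer; beta-galactosidase complementation read by luminescence after 1 h at ambient temperature. Dopamine 57 uM final (EC100) as control.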
Six1-Eya2 inh = qHTS Assay for Inhibitors of the Six1/Eya2 Interaction | AlphaScreen GST-Six1/His-Eya2 binding, biochemical; hits give low values; control for the full effect not named in the record | activity change, % (concentration not given with the values) | actives 0.56% (n = 360,000); in the data active = activity change below about -65%; inconclusive = about -30% to -65%; inactive = above about -30%; further: on the % scale 0 is the no-effect control and ±100 the full control effect
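AlphaScreen luminescence read after one hour at 37 °C in darkness. Pin-transferred compounds met GST-Six1 and His-Eya2 protein (5X stock 250 nM/500 nM) plus glutathione donor and Ni-chelate acceptor beads (5X, 50 ug/mL).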
TRPML1 inh = qHTS for Inhibitors of the Human Mucolipin Transient Receptor Potential 1 (TRPML1) | activity change, negative = inhibition, % (concentration not given with the values) | actives 0.02% (n = 390,000) | TRPML1-inducible cells, Ca2+ dye fluorescence, FDSS; hits give low values; inhibition of EC80 agonist-evoked calcium signal; in the data active means activity change below about -50%; inconclusive means about -30% to -50%; inactive means above about -30%;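 further: stimulus is agonist 54-4 at its EC80 concentration; on the % scale 0 is the no-effect control and ±100 the full control effect; compound concentration not given in the record; the text of the record puts the active cut at -80%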
Target sequence (Q9GZU1 whole entry, looked up): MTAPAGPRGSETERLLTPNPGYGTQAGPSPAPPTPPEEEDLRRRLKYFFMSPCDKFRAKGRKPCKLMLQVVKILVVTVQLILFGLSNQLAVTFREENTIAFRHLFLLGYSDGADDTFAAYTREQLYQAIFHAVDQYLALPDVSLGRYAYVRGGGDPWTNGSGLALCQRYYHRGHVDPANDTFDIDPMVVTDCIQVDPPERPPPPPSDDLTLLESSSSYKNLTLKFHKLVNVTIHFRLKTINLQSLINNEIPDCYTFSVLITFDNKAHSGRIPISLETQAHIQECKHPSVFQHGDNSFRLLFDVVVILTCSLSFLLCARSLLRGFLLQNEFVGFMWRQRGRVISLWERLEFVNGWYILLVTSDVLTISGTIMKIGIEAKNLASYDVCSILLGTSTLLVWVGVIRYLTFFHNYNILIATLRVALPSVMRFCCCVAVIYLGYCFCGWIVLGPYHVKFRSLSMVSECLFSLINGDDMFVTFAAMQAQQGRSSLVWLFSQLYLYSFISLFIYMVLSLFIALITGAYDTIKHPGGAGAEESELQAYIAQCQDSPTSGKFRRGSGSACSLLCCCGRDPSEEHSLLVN
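Tet-induced TRPML1-DL cells loaded with Ca8 no-wash calcium dye were read kinetically on FDSS. Compound addition was followed by EC80 agonist 54-4 (4 uM final); inhibition was read over 110 s.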
PINK1 modulator = A Quantitative High throughput Screen to Identify Chemical Modulators of PINK1 Expression | PINK1 immunofluorescence, high-content cytometry, 24 h | Potency, µM (doses to about 76.6 µM), for inactives: at the top dose activation (PINK1 increase), actives largely listed as activators | actives 0.2% (n = 410,000); active = well fitted activation curve with a large enough effect; inconclusive = small, poorly fitted or top-dose-only effect; inactive = flat fitted curve, though single readings scatter; cell line not stated here;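 further: potency means the concentration at half of the fitted maximal effect; % of control where 0% means no effect; nearly all actives have a fitted effect of over 65% in size; a mitochondrial uncoupler was the plate control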
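Decision-based qHTS: stable cells, 24 h exposure to five compound concentrations, CCCP as control. Fixed cells stained for PINK1 plus nuclear, mitochondrial and cell markers, cytometer read.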
TRPML1 agonist = qHTS for Agonists of the Human Mucolipin Transient Receptor Potential 1 (TRPML1). AID 624414, 2012. actives 0.12% (n = 410,000). Mucolipin-1 (Homo sapiens), Q9GZU1. TRPML1-expressing cells, Ca2+ dye fluorescence, FDSS; host cell line not named in the record; reference of the full effect not given here. activation, % (test concentration not listed); in the data active = activation above about 50%; inconclusive = about 30% to 50%; inactive = below about 30%; further: 0% is about no effect; the text of the record puts the active cut at 80%
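Agonist activity was taken from a 110 s kinetic Ca2+ dye read on the FDSS after pinning compounds onto TRPML1-DL cells. The cells were seeded at 1,500/well with Tet inducer, incubated about 16 h, then dye-loaded at room temperature.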
D2 potentiator = Beta-Arrestin HTS for Positive Allosteric Modulators of the Human D2 Dopamine Receptor: Potentiators. D(2) dopamine receptor (Homo sapiens), P14416. potentiation, % (test concentration not listed). DiscoveRx D2 beta-arrestin cells, luminescence, 90 min; 100% = 57 uM dopamine signal. actives 0.23% (n = 360,000); active = potentiation of 50% or more; inconclusive = 30% to 50%; inactive = 30% or less;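 further: compound concentration not given in the record; tested on top of an EC20 dose of dopamine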
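PathHunter beta-arrestin assay in DiscoveRx D2 cells. Compounds were added with an EC20 of dopamine (50 nM final) for 90 min at 37 deg C. Luminescence was read 1 h after detection reagent, with 57 uM dopamine as the EC100 control.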
* hit, by the source's call; ? = inconclusive; nt = no result given; & = joins results of further samples; [ ] = remark or other dose. This is a random part of the collection; any-hit rate near 1%.

Results follow in this order: D2 ag | Six1-Eya2 inh | TRPML1 inh | PINK1 modulator | TRPML1 agonist | D2 potentiator
- Cc1c(C(=O)NCc2ccco2)sc(=O)n1Cc1ccc(S(C)(=O)=O)cc1
  -4.4 | -6 | nt | -0.3% | -0.2 | -2
- O=C(NCC1CCCO1)c1ccc(Br)o1 (stereo unspecified)
  -1.3 | -2 | 19 | 0.9% | -0.1 | -2
- O=C(CC(Cc1ccccc1)C(=O)O)Nc1ccccc1 (stereo unspecified)
  -4.1 | 10 | 34 | 0.2% | 3.1 | -8
- CC1CCN(C(=O)CN(Cc2ccc(Cl)cc2)S(C)(=O)=O)CC1
  -2.0 | 6 | -12 | -1.9% | -0.4 | -1
- COc1cc(/C=C2/C(=O)NN(c3ccc(Cl)cc3)C2=O)ccc1OC(=O)c1ccco1
  -3.0 | 3 | 25 | 3.6% | 0.3 | 16
- O=C(Nc1ccccn1)c1ccc(S(=O)(=O)N2CCCCC2)cc1
  -2.8 | 0 | -15 | 0.5% | -1.1 | -24
- CCCS(=O)(=O)N1CCC(C(=O)NCCc2ccccc2)CC1
  -3.2 | -1 | -2 | -0.5% | -0.8 | -6
- Cc1onc(-c2ccccc2)c1C(=O)N1CCOCC1
  -1.4 | 12 | -13 | 0.2% | 0.1 | -11
- Cc1ccc(NC(=O)CN2C(=O)C3C4C=CC(C4)C3C2=O)cc1 (stereo unspecified)
  -1.6 | -2 | -7 | 0.0% | -0.6 | -11
- O=C(CSc1nnc(CNC(=O)c2c(F)cccc2F)o1)NCc1ccco1
  -0.5 | -1 | 14 | -2.4% | 1.4 | -12
- CC(NC(=S)NCCCN1CCOCC1)C12CC3CC(CC(C3)C1)C2 (stereo unspecified)
  -0.9 | -3 | 14 | 0.1% | -0.1 | -12
- CCN1CCN(CCNC(=O)CS(=O)(=O)Cc2nc(-c3ccc(C)cc3)oc2C)CC1
  -2.5 | 2 | -8 | -0.3% | 0.0 | -5
- O=C(NC1CCCC1)c1ccc(Cl)c(S(=O)(=O)N2CCCCC2)c1
  -2.5 | 5 | -15 | 3.0% | -1.2 | -2
- O=C(NC(=S)NC1CCSC1=O)c1ccccc1 (stereo unspecified)
  -3.2 | -3 | -10 | 2.5% | 0.8 | -4
- COc1cc(/C=N/n2nnnc2N)cc(OC)c1OC
  -5.7 | -3 | 5 | 3.4% | -0.4 | -16
- Cc1ccc(-c2cc(C(=O)Oc3ccccc3)c3cccc(C)c3n2)cc1
  nt | nt | -5 | 0.4% | 1.2 | nt
- Cc1cccc(OC(=O)c2nc(SCc3ccccc3F)ncc2Cl)c1
  nt | nt | 100 | 1.4% | 1.3 | nt
- Cc1c(Cl)cccc1NC(=O)c1ccc(OCC(=O)NCc2ccccc2)cc1
  0.2 | 5 | 10 | 7.9% | 4.1 | -7
- CCCc1cc(=O)[nH]c(SCC(=O)Nc2sc3c(c2C(N)=O)CCCC3)n1
  -11 | -9 | 3 | 2.4% | 1.2 | -6
- CN(C)C(CNC(=O)c1cc2ccccc2o1)c1ccccc1 (stereo unspecified)
  -5.3 | 5 | -2 | -1.2% | 0.5 | -29
- O=C(Nc1ccc(C(=O)N2CCCCC2)cc1)[C@H]1O[C@@H](n2ccc(=O)[nH]c2=O)[C@H](O)[C@@H]1O
  -3.5 | 8 | nt | -0.2% | 0.1 | -3
- O=S1(=O)CC(N2CCCCC2)C1CN1CCCCC1 (stereo unspecified)
  -1.8 | 8 | -9 | 0.5% | 0.1 | -9
- COC(=O)C[C@H]1C[C@H]2c3cc(NC(=O)C4CCOCC4)ccc3O[C@H]2[C@H](CO)O1
  -7.6 | 2 | 2 | 0.6% | 0.1 | 2
- CSc1ccc(CN2CCN(Cc3ccc([N+](=O)[O-])cc3)CC2)cc1
  5.3 | ? | 20 | 0.8% | 1.0 | -12
- COc1ccc(C#Cc2cnc3c(c2)C(=O)N([C@H](C)CO)C[C@H](C)[C@@H](CN(C)C(=O)Nc2cccc(OC)c2)O3)cc1
  -4.5 | -9 | -10 | 5.9% | -0.2 | 3
- CC(=O)OCC(=O)C1(O)CCC2C3CC(C)C4=CC(=O)C=CC4(C)C3(F)C(O)CC21C (stereo unspecified)
  1.7 | 10 | -16 | -1.2% | 0.4 | 1
- COc1ccc(/C(N)=N/OC(=O)Oc2ccccc2)cc1
  -4.0 | 9 | -4 | 3.4% | 0.4 | 10
- Cc1ccc(NC(=O)C2CC(=O)N(c3ccc4c(c3)OCCO4)C2)nc1 (stereo unspecified)
  -2.3 | -7 | 0 | -1.4% | -0.5 | -2
- CC1CCN(c2ccc([N+](=O)[O-])cc2C(=O)NCC2CCCO2)CC1 (stereo unspecified)
  -5.3 | 1 | 30 | -2.2% | 1.0 | -11
- Cc1ccc([N+](=O)[O-])cc1/C=N/Nc1nnnn1-c1ccccc1
  -0.9 | -2 | 9 | 1.2%[38.3 µM] | -0.8 | -8

Complete entries, quoted from the list:
Cc1ccc(-c2cc(C(=O)Oc3ccccc3)c3cccc(C)c3n2)cc1 is listed with D2 ag: nt; Six1-Eya2 inh: nt; TRPML1 inh: -5; PINK1 modulator: 0.4%; TRPML1 agonist: 1.2; D2 potentiator: nt
COc1ccc(C#Cc2cnc3c(c2)C(=O)N([C@H](C)CO)C[C@H](C)[C@@H](CN(C)C(=O)Nc2cccc(OC)c2)O3)cc1 is listed with D2 ag: -4.5; Six1-Eya2 inh: -9; TRPML1 inh: -10; PINK1 modulator: 5.9%; TRPML1 agonist: -0.2; D2 potentiator: 3

Other records.
Results follow in this order: D2 ag | Six1-Eya2 inh | TRPML1 inh | PINK1 modulator | TRPML1 agonist | D2 potentiator
- CCOCCCNC(=O)C(c1ccc(C)cc1)N1CCOCC1 (stereo unspecified)
  -3.8 | 1 | -6 | 2.3% | -1.0 | -4
- CC(=O)Nc1ccc(S(=O)(=O)N2CCN(c3ccc([N+](=O)[O-])cc3)CC2)cc1
  5.4 | 0 | nt | 1.6% | nt | -1
- COc1cc(CN2CCC(C(N)=O)CC2)ccc1OCc1ccccc1
  -0.7 | 0 | 38 | -0.4% | -0.3 | -14
- N#C/C(=C(/O)COC(=O)c1ccccc1O)c1nc2ccccc2s1
  1.8 | 0 | -1 | ? | 1.4 | -2
- CCCCOc1cccc2c(=O)n(CC(=O)Nc3ccc4c(c3)OCCO4)ccc12
  -3.3 | 8 | nt | 5.3% | -0.9 | -7
- COc1ccc(C(=O)CC(=O)O)c2c1C=CC(C)(C)O2
  -1.3 | 4 | -11 | 0.5% | -1.0 | -2
- COc1ccccc1OCC(=O)NCCC1=CCCCC1
  0.8 | 2 | 3 | 3.7% | 1.7 | -4
- CCC(=O)N1CCc2cc(S(=O)(=O)CCC(=O)NCc3cccc(OC)c3)ccc21
  -2.9 | 1 | -3&-4 | 1.4%&1.8% | 0.7&-0.1 | -5
- COc1ccc(Br)cc1S(=O)(=O)NCc1ccccc1
  -5.8 | 3 | 3 | 1.3% | 0.8 | -6
- O=C(NCCCN1CCOCC1)C(=O)NCC1OCCN1S(=O)(=O)c1ccc(Cl)cc1 (stereo unspecified)
  3.1 | 6 | -5 | 0.2% | -0.3 | -18
- O=C(Nc1ccc2c(c1)OCO2)C1CCN(C(=O)CSc2ncnc3ccccc23)CC1
  3.9 | -15 | 16 | -5.5%[38.3 µM] | -0.3 | -1
- CC1=C(C(=O)N(C(C)C)C(C)C)CC(CC(=O)NCc2ccco2)C(=O)N1Cc1ccccc1 (stereo unspecified)
  -5.0 | -3 | 8 | -0.6% | -0.4 | -4
- COc1cc(NC(=O)CSc2nc3[nH]ncc3c(=O)n2-c2ccccc2C)cc(OC)c1OC
  0.2 | 0 | -3 | 3.6% | -0.3 | -9
- O=c1c(-c2ccc(Br)cc2)[n+]([O-])c2ccccc2n1OCc1ccccc1
  1.7 | 1 | 5 | 7.4% | 2.8 | 5
- CCOC(=O)c1cc(-c2ccc(C)cc2)n(CCC(=O)Nc2nc3c(C)cccc3s2)c1C
  nt | nt | 32 | 2.8% | -0.1 | nt
- CCN(CC)S(=O)(=O)c1ccc(C)c(NC(=O)Cn2c(=O)cnc3ccccc32)c1
  -7.1 | -10 | -1 | 1.3% | -0.6 | -7
- CCOC(=O)N1CCN(CCCc2ccccc2)CC1
  12 | 0 | 22 | 0.4% | 0.3 | -7
- CC(NS(=O)(=O)c1ccc(Br)cc1)C(=O)NCCc1ccccc1 (stereo unspecified)
  -1.8 | 10 | 4 | 1.6% | -0.1 | 8
- CC(C)C(=O)Nc1c(O)c2ccccc2[nH]c1=O
  1.6 | 8 | ? | -2.2% | 1.0 | -4
- O=C(Nc1cc(N2CCCCC2)ncn1)c1ccc(F)cc1
  -3.4 | 7 | -11 | 3.6% | 0.9 | 2
- CN1CCN(CCOCCOc2ccc(Br)cc2Cl)CC1
  -4.1 | -2 | -3 | -0.3% | 0.3 | -6
- CC1(C(=O)O)Sc2[nH]c(=O)sc2C2c3ccccc3OC(=O)C21 (stereo unspecified)
  -0.4 | -1 | -4 | 2.5% | 0.5 | 2
- COc1ccccc1-c1cc(C(=O)NN)[nH]n1
  0.3 | 1 | 13 | 6.5% | 0.9 | -9
- CCCCN1C(=O)C(CC(=O)NC2CCCCC2)CC(C(=O)N(CC)CC)=C1C (stereo unspecified)
  -10 | 3 | -6 | 2.4% | -0.2 | -3
- CCc1ccc(NC(=O)C(=O)N/N=C(\C)CC(=O)Nc2ccccn2)cc1
  -2.8 | -2 | 29 | 7.1% | 2.9 | 3
- C[C@H](CO)N1C[C@H](C)[C@@H](CN(C)C(=O)Nc2ccc(C(F)(F)F)cc2)Oc2c(NC(=O)Nc3ccccc3)cccc2C1=O
  2.5 | -13 | -1 | 11% | 2.4 | 2
- O=C(/C=C/c1ccc(OC2CSC2)cc1)c1ccccc1
  -0.1 | -7 | -4 | -3.2% | 6.8 | 0
- CCOc1cc(S(=O)(=O)NCc2ccc3c(c2)OCO3)ccc1F
  -3.5 | 1 | 15 | 0.3% | -0.1 | -5
- Cc1ccc(NC(=O)CNc2cccc(C)c2C)c(C)c1
  -3.6 | -9 | 36 | 0.4% | 0.5 | -1
- COc1ccc(NS(=O)(=O)c2cccc(C(=O)NNC(=O)CNC(=O)c3ccco3)c2)cc1
  -0.7 | 0 | -10 | -0.3% | -0.5 | 3

Only D2 ag, TRPML1 inh and TRPML1 agonist, for two of the compounds above:
| SMILES | D2 ag | TRPML1 inh | TRPML1 agonist |
| --- | --- | --- | --- |
| O=C(Nc1cc(N2CCCCC2)ncn1)c1ccc(F)cc1 | -3.4 | -11 | 0.9 |
| CN1CCN(CCOCCOc2ccc(Br)cc2Cl)CC1 | -4.1 | -3 | 0.3 |
